SARS PLpro yeast = inhibitors of SARS-CoV papain-like protease in yeast; 0.19% of 330,000 active; Potency, µM (top dose mostly 32.9 µM), inactives show at the highest dose activity, positive = growth rescue; S. cerevisiae expressing SARS-CoV PLpro, growth rescue; control for the full effect not named in the record; AID 485353; active means well fitted rising curve with a large enough effect; inconclusive means small, poorly fitted or top-dose-only effect; inactive means no such curve, though single readings can be large or run the other way; further: 0% is about no effect; nearly all actives have a fitted effect of over 55% in size; growth read by luminescence after 48 h
2A StopGo = lowers the luciferase signal of an FMDV 2A StopGo reporter; human cells with a luciferase reporter of 2A StopGo recoding; control for the full effect not named in the record; Potency, µM (doses to about 57.9 µM), for inactives: at the top dose signal change, negative = less light; 1.2% of 410,000 active; AID 1159524; active = well fitted falling curve with a large enough effect; inconclusive = small, poorly fitted or top-dose-only effect; inactive = no such curve, though single readings can be large or run the other way; tested in HEK293T cells; further: on the % scale 0 is the no-effect control and ±100 the full control effect; nearly all actives have a fitted effect of over 45% in size; luciferase light after 4 h
RE007 growth inh = less growth of the S. pombe RE007 Vpr strain; S. pombe RE007 Vpr strain, BacTiter-Glo ATP luminescence, 24 h; control for the full effect not named in the record; Potency, µM (series often up to 92.2 µM), for inactives: top-dose activity change, negative = less growth; 0.21% of 360,000 active; AID 651644; active = well fitted falling curve with a large enough effect; inconclusive = small, poorly fitted or top-dose-only effect; inactive = no such curve, though single readings can be large or run the other way;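 further: on the % scale 0 is the no-effect control and ±100 the full control effect; nearly all actives have a fitted effect of over 50% in size; the assay follows cell death caused by Vpr and the record does not say whether a fall means rescue or toxicity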
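Fission yeast strain RE007, carrying one chromosomally integrated HIV-1 vpr copy, was seeded at OD 0.01 in PMG+AL medium with 23 nL pinned compound. After 24 h at 30 °C and 99% humidity, viability was read by BacTiter-Glo luminescence.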
* hit, by the source's call; u = inconclusive; [ ] = dose if it differs, or a comment. Potency means the concentration at half of the fitted maximal effect.

Screens in order – SARS PLpro yeast | 2A StopGo | RE007 growth inh
1. COc1cc(CCc2ccccc2)c(C(=O)O)c(O)c1C/C=C(/C)CCC=C(C)C
→ -48% | u | -11%
2. Cc1ccc(S(=O)(=O)N(C)C)cc1NC(=O)c1ccccc1SCC(=O)N1CCCC1
→ 4% | 1% | -17%
3. COc1ccc(CNC(=O)COC(=O)CCN2C(=O)C3CC=CCC3C2=O)cc1OC (stereo not drawn)
→ 2% | -5% | 1%
4. CCOC(=O)c1cc(-c2ccc(F)cc2)n(CC(=O)NCc2cccnc2)c1C
→ 0% | 6% | 1%
5. CC(=O)Nc1ccc(NC(=O)COC(=O)c2c(-c3ccccc3)noc2C)cc1
→ 2% | u | 3%
6. NC[C@H](Cc1ccccc1)NCCc1cc(C(F)(F)F)cc(C(F)(F)F)c1
→ 9% | -19% | 2%
7. COc1ccc2c(=O)cc(CO)oc2c1
→ 2% | -14% | 1%
8. CC(Oc1cc(F)ccc1[N+](=O)[O-])C(=O)Nc1ccc(S(=O)(=O)N2CCCC2)cc1 (stereo not drawn)
→ 0% | -26% | 2%
9. CCN1C(=O)[C@H]2[C@@H](c3ccc(-c4ccc(C(C)=O)cc4)cc3)N[C@@](C)(C(=O)OC)[C@H]2C1=O
→ -1% | -15% | -9%
10. C/C(CCc1ccccc1)=N\NC(=O)C(=O)Nc1cccc(Cl)c1
→ 1% | -4% | 14%
11. COCCNC(=S)N/N=C(\C)c1ccc(Cl)c(Cl)c1
→ 3% | -3% | u
12. CC(C)(C)c1ccc(-c2nnc(SCC(=O)NC3CC3)o2)cc1
→ 3% | 23% | 3%
13. Cc1ccc(CNC(=O)COC(=O)c2cc(=O)[nH]c3ccccc23)cc1
→ 3% | -4% | -2%
14. COc1cc(-c2cc(C(=O)Nc3ccncc3)c3ccccc3n2)cc(OC)c1OC
→ -1% | u | -4%
15. COCc1c(C(=O)NCc2ccccc2CN2CCCC2)oc2ccccc12
→ 10% | -15% | -20%
16. COCC(C)n1c(C)cc(C(=O)CN2c3cccc4cccc(c34)S2(=O)=O)c1C (stereo not drawn)
→ -10% | 7% | 2%
17. O=C(C[C@@H]1C/C=C\CCCC(=O)OC[C@@H]2CCCN2C1=O)NCCO
→ 8% | -10% | 8%
18. O=C(CCc1ccccc1)NCCCNC(=O)CCc1ccccc1
→ -4% | -9% | 7%
19. COc1ccc2c(C(=O)c3ccc(C)cc3)n(CCCC(N)=O)[n+]([O-])c2c1
→ 1% | 18% | -1%
20. N#Cc1c2n(c(=S)n(-c3ccc(OC(F)F)cc3)c1=O)CCCCC2
→ 5% | -9% | 1%

The list goes on.
Screens in order – SARS PLpro yeast | 2A StopGo | RE007 growth inh
21. O=C(O)c1ccccc1C(=O)OCCCc1ccncc1
→ 2% | 5% | 11%
22. CCCCNc1c(-c2ccc(-c3ccc(OC)cc3)c(OC)c2)nc2ccccn12
→ 8% | u | u
23. C[C@H](CO)N1C[C@H](C)[C@@H](CN(C)C(=O)Nc2ccc3c(c2)OCO3)Oc2ccc(NC(=O)CCN3CCOCC3)cc2C1=O
→ -13% | -18% | 2%
24. CN(CC(=O)Nc1ccc(F)cc1)C(=O)COC(=O)CNC(=O)c1sc2ccccc2c1Cl
→ 0% | 1% | 1%
25. O=C(COC(=O)c1ccc2c(c1)OCO2)Nc1ccccc1F
→ 3% | 40%[activator] | -3%
26. O=C(NC1CCC(O)CC1)c1cc(-c2ccc(Cl)cc2)nc2ccccc12 (stereo not drawn)
→ 1% | -11% | -7%
27. CC(=O)Oc1ccc(C2(C)CC(C)(C)NC(=S)N2C)c(OC(C)=O)c1 (stereo not drawn)
→ 0% | -6% | 2%
28. O=C(NCCOc1ccccc1F)C1CC(=O)N(c2ccc3c(c2)OCCO3)C1 (stereo not drawn)
→ -3% | 15% | 0%
29. CCN(CC)C(=O)[C@H]1CC(CC(=O)NCc2ccc(OC)c(OC)c2)C(=O)N2CCc3c([nH]c4ccccc34)[C@]12C (stereo partly drawn)
→ -1% | u | 2%
30. C[C@H]1CN([C@@H](C)CO)C(=O)c2cccc(NC(=O)Nc3ccc(F)cc3)c2O[C@@H]1CN(C)Cc1ccc(C(=O)O)cc1
→ -2% | 7% | 3%
31. C[C@H](CO)N1C[C@H](C)[C@@H](CN(C)C(=O)Nc2ccc(C(F)(F)F)cc2)Oc2ccc(NS(=O)(=O)c3cccs3)cc2C1=O
→ 2% | 8% | 11%
32. Fc1ccc(C2CC(c3ccco3)=Nc3ccccc3S2)cc1 (stereo not drawn)
→ -32% | 6% | 25µM*
33. COC(=O)c1cc(COC(=O)c2nc3nc(C)cc(C)n3n2)oc1C
→ -3% | 4% | 9%
34. O=C1c2ccc(-c3ccc(F)cc3OCc3ccccc3)cc2S(=O)(=O)c2cccc(C(=O)N3CCN(c4ncc(Cl)cc4Cl)CC3)c21
→ 1% | -14% | -2%
35. C#CCN(Cc1ccccc1)S(=O)(=O)C=C
→ 2% | u | 9%
36. O=C(NN1C(=O)c2ccccc2NC1c1ccco1)c1ccc(Br)cc1 (stereo not drawn)
→ -4% | -3% | 38%
37. COc1ccc(Cl)cc1C1=CC(=O)C[C@H](c2ccc(F)cc2)C1
→ 4% | -10% | 10%
38. CN(C)C(=O)CCc1ccc2c3c([nH]c2c1)[C@]1(C)[C@@H](C(=O)N2CCCCC2)C[C@H](CC(=O)NCCC2=CCCCC2)C(=O)N1CC3
→ 9% | 13% | 5%
39. c1ccc2c3n(nc2c1)CCCCO3
→ -5% | -9% | -3%
40. Cc1cnc(C(=O)OC(C)C(=O)Nc2ccc(Oc3ccccc3)cc2)cn1 (stereo not drawn)
→ -9% | -3% | -4%

The list goes on:
Screens in order – SARS PLpro yeast | 2A StopGo | RE007 growth inh
41. NC(=O)C1CCN(CC(=O)Nc2ccccc2C(=O)NC2CC2)CC1
→ 8% | -15% | 13%
42. Cc1ccc(NC(=O)c2c(F)cccc2Cl)cc1S(=O)(=O)N1CCOCC1
→ 1% | 11% | -8%
43. Cc1ccc(NC(=O)c2ccc(Cl)c(S(=O)(=O)N3CCCCC3)c2)nc1
→ -22% | u | -7%
44. COc1cc2oc(=O)ccc2cc1[C@H](O)[C@@H](O)C(C)(C)O
→ 1% | -16% | 30%
45. C[C@H](CO)N1C[C@H](C)[C@@H](CN(C)S(=O)(=O)c2ccccc2)Oc2c(NC(=O)CCC(F)(F)F)cccc2C1=O
→ -4% | 16% | -10%
46. O=c1oc(CCCO)cc2ccccc12
→ 1% | -8% | 3%
47. COc1ccc(CCNC(=O)c2cc(C3CC3)nc3c2cnn3C(C)C)cc1OC
→ -3% | u | -9%
48. C=CCc1cccc(/C=N/NC(=O)CNc2ccccc2OC)c1O
→ -11% | -26% | 15%
49. CNS(=O)(=O)c1cccc(C(=O)OCC(=O)NC2CCCC(C)C2C)c1 (stereo not drawn)
→ -12% | 4% | -10%
50. Cc1ccc(S(=O)(=O)N(C)C)cc1NC(=O)COc1cccc(-n2cnnn2)c1
→ -2% | u | 4%
51. CCCNC(=O)c1onc(CSc2ccc(Cl)cc2)c1C(=O)NCC1CC1
→ -7% | -3% | -11%
52. O=C(NCc1ccco1)c1cccc2c1C(=O)c1ccc(N3CCCC3)cc1S2(=O)=O
→ 0% | 10% | 9%
53. CCCN1CCc2c(sc(NC(=S)NC(=O)c3ccccc3)c2C#N)C1
→ 1% | 22% | -20%
54. CCCNC(=O)c1ccc(N2CCC3(CC2)CC(c2cccc(Br)c2)=NO3)c(NC(=O)c2cccc(OC)c2)c1
→ -2% | -18% | -5%
55. CC(Sc1nncs1)C(=O)Nc1ccc(S(=O)(=O)Nc2ncccn2)cc1 (stereo not drawn)
→ -7% | -6% | 7%
56. O=c1oc2ccc(C#CC3(O)CCCCC3)cc2cc1-n1cc(-c2ccsc2)nn1
→ 0% | -2% | 6%
57. COc1ccc2cc(C3=CCCCC3)ncc2c1
→ -2% | -11% | -26%
58. COc1ccc(NC(C)=O)cc1NC(C)C(=O)Nc1cccc(S(=O)(=O)N2CCOCC2)c1 (stereo not drawn)
→ -4% | 19% | 20%
59. CCOC(=O)/C=C/[C@H]1Cc2ccccc2CO1
→ -6% | 23% | -6%
60. CCCc1cc(=O)[nH]c(SCCN2C(=O)c3ccccc3C2=O)n1
→ 0% | 2% | -15%

Next compounds follow:
Screens in order – SARS PLpro yeast | 2A StopGo | RE007 growth inh
61. CC(C)(C)OC(=O)C[C@@H]1C/C=C\C[C@@H](CC(=O)NCCO)C(=O)NC[C@H](c2ccccc2)OC1=O
→ -5% | -26% | 13%
62. CNC[C@H]1Oc2ccc(NC(=O)Nc3ccc4c(c3)OCO4)cc2C(=O)N([C@H](C)CO)C[C@@H]1C
→ 9% | -8% | -4%
63. COc1ccc(N(Cc2ccccc2)S(=O)(=O)c2cccc(C(=O)Nc3ncccc3C)c2)cc1
→ 4% | -5% | 16%
64. CC1CCCN(c2ccc([N+](=O)[O-])s2)C1 (stereo not drawn)
→ 1% | 14% | 2%
65. COCCNC(=S)N/N=C/c1ccc2c(c1)OCCO2
→ -1% | 1% | -5%
66. CCN(C(=O)CN1CCC(C(=O)OC)CC1)c1c(N)n(Cc2ccccc2)c(=O)[nH]c1=O
→ -1% | -19% | 11%
67. CCn1nc(C(=O)OCC(=O)c2ccc(F)cc2)c2ccccc2c1=O
→ -1% | 1% | 20%
68. O=c1[nH]cc(NCCNc2ncc(C(F)(F)F)cc2Cl)c(=O)[nH]1
→ -7% | 0% | -5%
69. Cc1noc(C)c1S(=O)(=O)N(C)C[C@H]1Oc2c(NC(=O)NC3CCCCC3)cccc2C(=O)N([C@H](C)CO)C[C@@H]1C
→ 1% | 6% | 7%
70. O=C(c1ccccc1)c1ccc(OCC(=O)N2CCOCC2)cc1
→ 0% | 13% | -4%
71. CC1CCCCN1C(=O)c1cc(S(=O)(=O)N2CCOCC2)ccc1Cl (stereo not drawn)
→ 0% | -16% | 1%
72. O=C1C=C(c2ccc(F)cc2OCc2ccccc2)C[C@@H](c2ccc(F)cc2)C1
→ 0% | u | 6%
73. COC(=O)/C=C/C1=CN(Cc2ccccc2)CCC1=O
→ -1% | 8% | -1%
74. C/C(=N/Nc1ccc(C)cc1)C1(C)N(O)C(C)(C)C(c2ccco2)=[N+]1[O-] (stereo not drawn)
→ 3% | -12% | 9%
75. CC(=O)N1CCN(S(=O)(=O)c2cccc(C(=O)OCC(=O)N(Cc3ccccc3)C(C)(C)C)c2)CC1
→ 1% | -3% | -1%
76. CCCC[C@@H]1CNCCN1CC1(c2ccccc2)CC1
→ 0% | -11% | 4%
77. O=C(NCCCN1CCOCC1)c1c(-c2ccccc2)sc2ccccc12
→ -2% | -16% | 2%
78. OCC[C@H]1C[C@@H](O)[C@H](O)[C@@]2(CCc3ccccc3O2)O1
→ 0% | -16% | 0%
79. Cc1cc(C)c(C(=O)COC(=O)c2c(C)noc2C)cc1C
→ -5% | -12% | -3%
80. Nc1cc(=O)[nH]c(SCC(=O)Nc2ccc(N3CCOCC3)cc2)n1
→ 0% | 1% | 11%

Later entries.
Screens in order – SARS PLpro yeast | 2A StopGo | RE007 growth inh
81. CC[C@]12c3[nH]c4ccccc4c3CCN1C(=O)C(CC(=O)NCc1cccc(C(F)(F)F)c1)C[C@@H]2C(=O)N1CCN(C(=O)C2CC2)CC1 (stereo partly drawn)
→ -4% | 9% | -13%
82. C=C[C@]1(C)C=C2CC[C@H]3[C@@](C)(CCC[C@@]3(C)C(=O)O)[C@@H]2CC1
→ -9% | -14% | -16%
83. CC(C)NC(=O)N(C)C[C@@H]1Oc2c(NS(=O)(=O)c3ccccc3)cccc2C(=O)N([C@@H](C)CO)C[C@@H]1C
→ 3% | -7% | 11%
84. COc1cc(OC)cc(-c2c(C#Cc3ccsc3)c3cc(-c4cc(OC)c(OC)c(OC)c4)ccc3n2C)c1
→ -4% | -1% | 4%
85. NC(=O)Nc1ccc(C(=O)OCC(=O)NCc2ccc3c(c2)OCO3)cc1
→ -22% | -7% | 3%
86. CC(=O)N1CCN(C(=O)C(Cc2ccccc2)NC(=O)c2ccccc2)CC1 (stereo not drawn)
→ -1% | -3% | -9%
87. CCOC(=O)c1c(C=O)c2ccccc2n1CC
→ -5% | -13% | -15%
88. Cc1cccc(C)c1NC(=O)C1c2cccc[n+]2CC(=O)N1Cc1ccc2c(c1)OCO2 (stereo not drawn)
→ -2% | 24% | 0%
89. Oc1ccc(C[C@H]2CNCCN2CC2(c3ccccc3)CC2)cc1
→ -9% | 0% | -2%
90. CC(OC(=O)C1CC2CCCC(C1)C2=O)C(=O)Nc1cccc([N+](=O)[O-])c1 (stereo not drawn)
→ 1% | -17% | 4%

High-throughput results deposited in PubChem BioAssay by National Center for Advancing Translational Sciences (NCATS).

A portion of the library (hit frequency here may not be typical).
